Cruzain inh noDet: blocks cruzain activity in detergent-free assay; P25779; purified cruzain, Z-FR-AMC fluorescence, no detergent; Potency, µM, inactives show max response, negative = inhibition, hits mostly inhibitors; 200,000 compounds, 2.3% hits; active means well fitted curve in the direction sought with a large enough effect; inconclusive means small, poorly fitted or top-dose-only effect, or another doubt; inactive means no such curve, though single readings can be large; an effect the other way counts as inactive or inconclusive;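 further: plate controls were enzyme without inhibitor for no effect and buffer without enzyme for full effect; nearly all actives have a fitted effect of over 40% in size; top concentration of the series not given in the record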
Target sequence (P25779 123-467 limits assumed): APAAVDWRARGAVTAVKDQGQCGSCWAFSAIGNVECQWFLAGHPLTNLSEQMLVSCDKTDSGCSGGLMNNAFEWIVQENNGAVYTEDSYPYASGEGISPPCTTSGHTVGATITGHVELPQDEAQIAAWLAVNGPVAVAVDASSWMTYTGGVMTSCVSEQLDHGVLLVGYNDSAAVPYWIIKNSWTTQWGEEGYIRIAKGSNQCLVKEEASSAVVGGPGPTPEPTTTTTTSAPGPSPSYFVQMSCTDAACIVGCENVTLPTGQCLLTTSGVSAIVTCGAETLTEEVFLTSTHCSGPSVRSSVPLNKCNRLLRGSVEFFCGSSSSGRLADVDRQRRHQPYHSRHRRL
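Purified cruzain at 1.5 nM, pre-incubated 15 min with compound at room temperature in 100 mM sodium acetate pH 5.5, 5 mM DTT, 0.00005% Triton X-100. Reaction started with 2 uM Z-FR-AMC; AMC fluorescence increase over 60 s gives rate.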
MARV entry inh: blocks Marburg virus binding to or entry into cells. Marburg virus pseudotyped entry inhibition, cell reporter; control for the full effect not named in the record; about a third of the inactives were read at about 46 µM. Potency, µM (highest dose often 37.8 µM), for the others: top-dose activity change, negative = inhibition, usual class: inhibitors. 300,000 compounds, 1.8% hits. AID 540276; active = well fitted inhibition curve with a large enough effect; inconclusive = small, poorly fitted or top-dose-only effect, or effect the other way; inactive = flat fitted curve, though single readings scatter; tested in HEK293 cells; about a fifth of its hits are not listed in these tables; further: on the % scale 0 is the no-effect control and ±100 the full control effect; luciferase read-out
Cruzain Triton: blocks cruzain activity in presence of Triton detergent | 200,000 compounds, 0.43% hits | purified cruzain, Z-FR-AMC fluorescence, 0.01% Triton | Potency, µM, for inactives: max response, negative = inhibition, usual class: inhibitors; active means well fitted curve in the direction sought with a large enough effect; inconclusive means small, poorly fitted or top-dose-only effect, or another doubt; inactive means no such curve, though single readings can be large; an effect the other way counts as inactive or inconclusive;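 further: plate controls were neutral wells for no effect and buffer without enzyme for full effect; nearly all actives have a fitted effect of over 40% in size; top concentration of the series not given in the record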
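Z-FR-AMC hydrolysis (2 uM substrate) by cruzain (1.5 nM) monitored kinetically at ex 360/em 450 nm after 15 min room-temperature compound exposure; 0.01% Triton X-100, pH 5.5, 5 mM DTT.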
SARS PLP yeast: SARS-CoV PLP inhibition in yeast. S. cerevisiae expressing SARS-CoV PLpro, growth rescue; control for the full effect not named in the record. Potency, µM (top dose mostly 32.9 µM), inactives show top-dose activity, positive = growth rescue. 330,000 compounds, 0.19% hits. AID 485353; further: 0% is about no effect; nearly all actives have a fitted effect of over 55% in size; growth read by luminescence after 48 h
NS1 function inh: influenza NS1 inhibition | S. cerevisiae slowed by influenza A NS1, growth recovery by OD600 | Potency, µM (series often up to 46.1 µM), without a hit: at the highest dose activity, positive = more growth | 270,000 compounds, 0.4% hits | AID 2326; further: actives are rising curves; nearly all actives have a fitted effect of over 50% in size
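OD600 was taken as the measure of yeast growth restored by compound in an NS1-expressing S. cerevisiae strain. Cells had been washed out of glucose medium and diluted 1:100 into galactose -URA medium, pH 6.0.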
StopGo reporter: FMDV 2A StopGo reporter, luciferase signal; 410,000 compounds, 1.2% hits; human cells with a luciferase reporter of 2A StopGo recoding; control for the full effect not named in the record; Potency, µM (top dose mostly 57.9 µM), without a hit: at the highest dose signal change, negative = less light; AID 1159524; active = well fitted falling curve with a large enough effect; inconclusive = small, poorly fitted or top-dose-only effect; inactive = no such curve, though single readings can be large or run the other way; tested in HEK293T cells; further: on the % scale 0 is the no-effect control and ±100 the full control effect; nearly all actives have a fitted effect of over 45% in size; luciferase light after 4 h
Lassa entry inh: blocks Lassa virus binding to or entry into cells | Lassa virus pseudotype entry inhibition, cell reporter; control for the full effect not named in the record | Potency, µM (doses to about 37.9 µM), without a hit: at the top dose activity change, negative = inhibition, hits mostly inhibitors | 300,000 compounds, 1.2% hits | AID 540256; active means well fitted inhibition curve with a large enough effect; inconclusive means small, poorly fitted or top-dose-only effect, or effect the other way; inactive means flat fitted curve, though single readings scatter; tested in HEK293 cells; further: on the % scale 0 is the no-effect control and ±100 the full control effect; nearly all actives have a fitted effect of over 50% in size; luciferase read-out
RE007 growth inh: less growth of the S. pombe RE007 Vpr strain | S. pombe RE007 Vpr strain, BacTiter-Glo ATP luminescence, 24 h; control for the full effect not named in the record | Potency, µM (highest dose often 92.2 µM), inactives show at the highest dose activity change, negative = less growth | 360,000 compounds, 0.21% hits | AID 651644; active = well fitted falling curve with a large enough effect; inconclusive = small, poorly fitted or top-dose-only effect; inactive = no such curve, though single readings can be large or run the other way;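 further: on the % scale 0 is the no-effect control and ±100 the full control effect; nearly all actives have a fitted effect of over 50% in size; the assay follows cell death caused by Vpr and the record does not say whether a fall means rescue or toxicity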
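Fission yeast strain RE007, carrying one chromosomally integrated HIV-1 vpr copy, was seeded at OD 0.01 in PMG+AL medium with 23 nL pinned compound. After 24 h at 30 °C and 99% humidity, viability was read by BacTiter-Glo luminescence.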
* = called active by the depositor; ? = inconclusive; . = no result given; & = joins results of further samples; [ ] = remark or other dose. Unless noted, the call rests on the fitted dose curve; in most records, active means well fitted rising curve with a large enough effect; inconclusive means small, poorly fitted or top-dose-only effect; inactive means no such curve, though single readings can be large or run the other way. Potency means the concentration at half of the fitted maximal effect.

Values run as follows: Cruzain inh noDet	MARV entry inh	Cruzain Triton	SARS PLP yeast	NS1 function inh	StopGo reporter	Lassa entry inh	RE007 growth inh
CC(=O)c1cccc(NC(=O)CN2C(=O)c3cccnc3Oc3ccc(Cl)cc32)c1
    .	?	.	0%	24%	-16%	?	8%
CCOCc1cc(CN2CCN(c3cccc(C(F)(F)F)c3)CC2)c(O)c2ncccc12
    -5%	?	0.0%	.	.	?	?	.
O=C(NCc1ccccn1)c1ccc(Cl)c(S(=O)(=O)N2CCOCC2)c1
    .	?	.	18%	11%	-18%	0%	8%
CCOC(=O)c1cc(-c2ccccc2)n(CCC(=O)Nc2ccc(C)cc2Cl)c1C
    -4%	.	-2.6%	.	.	-9%	19%[46.1 µM]	.
Cc1ccc(OCC(=O)Nc2cnn(CCCC(=O)O)c2)c([N+](=O)[O-])c1
    .	-17%[46.1 µM]	.	1%	.	2%	5%[46.1 µM]	1%
COc1ccc(C(=O)N2c3ccccc3C(C)(c3ccc(Cl)cc3)CC2(C)C)cc1 (stereo not drawn)
    ?	.	-3.4%	.	.	-7%	-21%[46.1 µM]	.
O=C(Cn1ccc(C(F)(F)F)n1)N/N=C/c1ccc(N2CCOCC2)cc1
    .	?	.	-1%	4%	-3%	2%	30%
O=C(COc1ccc(-c2nnco2)cc1)N1CCOCC1
    .	1%	.	5%	.	-15%	18%	-16%
CC(C(=O)NC1CCCC1)N(C(=O)c1snc(C(N)=O)c1N)c1ccc2c(c1)OCCO2 (stereo not drawn)
    -9%	5%&5%	-1.0%	1%	2%	25%	?	-5%
N#C/C(=C\c1ccc(F)cc1)C(=O)NC1CCS(=O)(=O)C1 (stereo not drawn)
    .	14%[46.1 µM]	.	1%	1%	28%	-16%[46.1 µM]	7%
CCC(C)NC(=O)c1c(N)n(CCCOC)c2nc3ccccc3nc12 (stereo not drawn)
    ?	-22%	-14%	-2%	-59%	-26%	-10%	-2%
Cc1ccc(S(=O)(=O)Nc2nc3ccc(S(=O)(=O)N4CCCC4)cc3s2)cc1
    ?	-5%	-3.1%	4%	-1%	0%	-1%	0%
Cn1ncc(C#N)c1NC(=O)C1CC(c2ccc(Cl)cc2)=NO1 (stereo not drawn)
    -9%	4%	1.8%	4%	24%	-24%	-17%	-4%
Cn1cc(CN2CCCC(CNS(=O)(=O)c3cccc4cccnc34)C2)cn1 (stereo not drawn)
    .	9%	.	2%	10%	-3%	12%	-3%
Cc1cccc(N(CC(=O)NC(C)(C)C)C(=O)CNC(=O)c2cccs2)c1C
    .	.	.	2%	3%	-2%	.	-2%
O=C(Cn1c(=O)n(CC2CCCO2)c(=O)c2ccccc21)N1CCN(c2ccccc2)CC1 (stereo not drawn)
    -5%	0%[46.1 µM]	-0.2%	1%	-5%	-18%	-2%	3%
O=C(Nc1ccc(C(F)(F)F)cc1)c1ccc2ncsc2c1
    .	.	.	-3%	-1%	13%	.	3%
O=C(Cc1ccccc1)Nc1ccc(NC(=O)c2cccnc2)cc1
    .	?	.	.	7%	-7%	-21%[46.1 µM]	6%
S=C1SCN(Cc2ccccn2)CN1Cc1ccco1
    -5%	9.2µM*	5.7%	7%	-163%	-19%	14%[14.3 µM]	-19%
Cc1cc(C)cc(C(=O)O/N=C(\N)c2ccc(Br)cc2)c1
    -18%	-26%	1.5%	6%	-12%	21%	?	5%
CCN(Cc1cc(=O)n2ccsc2n1)Cc1nc2ccccc2c(=O)[nH]1
    .	-18%[46.1 µM]	.	0%	.	-5%	12%[46.1 µM]	-11%
CC(C)CC(c1nnnn1Cc1ccc(F)cc1)N1CCC(C(N)=O)CC1 (stereo not drawn)
    .	-1%[46.1 µM]	.	0%	.	9%	?	12%
C=CCCN([C@@H](C)C(=O)OC)S(=O)(=O)c1ccccc1Br
    .	.	.	1%	1%	-13%	.	-6%
O=C(COc1ccccc1[N+](=O)[O-])Nc1ccc(Br)cc1
    .	?	.	-3%	-3%	25%	-4%[46.1 µM]	-1%
CCOC(=O)Cn1c(C)cc(=O)c2ccccc21
    2%	0%	1.9%	9%	2%	?	11%	-4%
O=C(O)c1cn(-c2ccccc2)nc1-c1ccc(Cl)cc1
    .	-1%	.	.	.	-12%	29%[14.3 µM]	-9%
O=C(CCc1nnc2n(Cc3ccc(Cl)cc3)c(=O)c3ccccc3n12)NCCN1CCCC1
    .	10µM*	.	0%	3%	5%	?	-6%
CC(C)C(=O)N(Cc1ccccc1)c1ccccn1
    -11%	-7%	4.9%	12%	17%	.	5%	-7%
CC(C)CCNC(=O)c1ccc(-n2cnc3cccnc32)cc1
    .	.	.	0%	-2%	28%	.	4%
Cc1cc(OC(=O)c2cc(Cl)nc3ccccc23)ccc1Cl
    -2%	2%	-3.6%	13%[6.58 µM]	9%	-18%	-16%	-7%
O=C1CC(c2ccccc2)CN1C(=O)c1ccccc1 (stereo not drawn)
    4%	1%	2.9%	10%	14%	-1%	-2%	1%
C=CCN(c1cccc(C(F)(F)F)c1)S(=O)(=O)c1cccc(C(=O)OCC(=O)Nc2ccccc2)c1
    -11%	5%	-7.9%	11%	17%	-9%	-7%	4%
CCCCC1CC1C(=O)Nc1ccc(OC)c(OC)c1 (stereo not drawn)
    3%	1%	9.2%	-4%	0%	11%	5%	6%
CNC(=O)COC(=O)/C=C/c1ccc(F)cc1
    .	26%[46.1 µM]	.	3%	.	28%	-3%	16%
S=c1[nH]nc(-c2cccs2)n1/N=C/c1cccs1
    .	14%[46.1 µM]	.	-2%	.	-14%	-1%	-11%
CCOc1ccc(N(Cc2ccccc2)C(=O)c2nc(SC)ncc2Cl)cc1
    2%	?	-9.1%	.	.	?	-22%[46.1 µM]	.
O=C(COc1ccccc1Cl)NC(=O)NC1CCCC1
    -7%	?	0.1%	10%	-34%	.	-14%	?
Cc1c(N(C)S(=O)(=O)c2ccc(Cl)c(C(=O)N3CCC(C(N)=O)CC3)c2)c(=O)n(-c2ccccc2)n1C
    .	12%[46.1 µM]	.	-3%	.	-11%	19%	8%
O=[N+]([O-])c1cccc(CSc2nc3ccccc3[nH]2)c1
    9%	?	-4.8%	-26%	-17%	14%	?	-19%
COc1ccc(/C=C/C(=O)O)cc1S(=O)(=O)N1CCC(C)CC1
    .	.	.	0%	3%	1%	.	10%
Cc1ccc(NS(=O)(=O)c2ccc3c(c2)NC(=O)CO3)cc1C
    .	.	.	3%	16%	49%[activator]	.	-14%
COc1ccc(C(=O)c2nc3ccccc3n2C(C)C)cc1OC
    .	.	.	-1%	-7%	-15%	.	-3%
COc1ccc(-c2nc3scc(-c4ccccc4)n3n2)cc1
    12%	-40%	-4.8%	0%	0%	13%	2%	-14%
FC(F)Oc1cccc2cccnc12
    -3%	-7%	1.0%	-10%	0%	.	27%	10%
CC(C)(C)c1cc(CP(=O)(c2ccccc2)c2ccccc2)cc(C(C)(C)C)c1O
    .	.	.	-12%	-26%	?	.	4%
O=C(O)C1CC=CCC1C(=O)c1ccccc1 (stereo not drawn)
    1%	15%	-3.3%	8%	6%	-13%	4%	1%
CC(C)C[C@H](NC(=O)C1CCC(CNC(=O)[C@@H]2CCCN2C(=O)OC(C)(C)C)CC1)C(=O)O (stereo partly drawn)
    .	-3%[46.1 µM]	.	2%	-1%	0%	15%[46.1 µM]	2%
CCN(C(=O)CN1C(=O)/C(=C/c2ccc(F)cc2)SC1=S)C1CCS(=O)(=O)C1 (stereo not drawn)
    .	.	.	?	16%	-21%	.	-12%
COc1ccc2ccc(O)c(CN(C)CC(=O)Nc3ccccc3C(F)(F)F)c2c1
    .	-18%[46.1 µM]	.	1%	15%	-23%	-4%	-12%
CCOC(=O)C1(CC2CCCCO2)CCN(Cc2nc(-c3cccs3)oc2C)CC1 (stereo not drawn)
    .	.	.	1%	-3%	-22%	.	-5%
Cc1cccc(NS(=O)(=O)c2cc3c(cc2C)n(C)c(=O)c(=O)n3C)c1
    .	.	.	4%	12%	11%	.	-14%
CCN(CC(=O)NC1CCS(=O)(=O)C1)Cc1nc2c(Br)cc(Br)cc2c(=O)[nH]1 (stereo not drawn)
    .	-4%[46.1 µM]	.	-1%	.	-13%	-27%	-9%
COc1ccc(C(=O)CSc2nc(=O)n(Cc3cccnc3)c3c2CCC3)cc1
    .	1%	.	.	.	4%	0%	-1%
Cc1ccc(S(=O)(=O)N(C)c2ccc(C(=O)Nc3cccc(C)n3)cc2)cc1
    .	?	.	-7%	-45%	25µM*	-14%	0%
COc1ccc(OC)c(NC(=O)COc2coc(CN3CCc4ccccc43)cc2=O)c1
    .	-5%	.	-3%	.	-24%	-6%	-10%
C=CCN1C(=O)C2C(C(=O)NC3CCCC3)C3C=CC2(O3)C1C(=O)NC1CCCC1 (stereo not drawn)
    .	21%[46.1 µM]	.	8%	3%	2%	4%[46.1 µM]	12%
COc1ccc(C(C)NC(=O)c2ccccc2)cc1 (stereo not drawn)
    -3%	-10%	-1.3%	1%	-4%	.	-16%	8%
COc1cc(S(=O)(=O)NCc2ccc(F)cc2)ccc1-n1cnnn1
    .	30%[46.1 µM]	.	1%	2%	77%[activator]	.	-18%
O=C(CSc1nnc(CCc2nc3ccccc3[nH]2)n1-c1ccccc1)NCc1ccco1
    -1%	2%&2%	-6.4%	1%	-4%	3%	5%	-19%
COc1ccc(NC(=O)CN(C)C(=O)CC2CCCC2)cc1
    .	11%[46.1 µM]	.	-3%	.	-17%	-6%	4%

Further results:
Values run as follows: Cruzain inh noDet	MARV entry inh	Cruzain Triton	SARS PLP yeast	NS1 function inh	StopGo reporter	Lassa entry inh	RE007 growth inh
CC(=O)Cc1nsc(NC(=O)c2ccc(-c3ccc(Cl)cc3Cl)o2)n1
    ?	-9%	-2.1%	9%	3%	5%	-7%	-11%
Cc1ccc2nc(NC(=O)COc3ccc(F)cc3)sc2c1
    11%	.	-2.4%	.	.	2%	?	.
CCn1c(SCC(=O)NC2CCCCC2)nnc1-c1ccccc1F
    .	-3%[46.1 µM]	.	-3%	2%	-23%	-18%	1%
COc1cccc(Cn2cc(C(=O)c3ccc(Cl)cc3)c(=O)c3ccccc32)c1
    15%	?	-2.6%	.	.	-22%	?	.
